Screening results deposited in PubChem by Broad Institute.
MLL AF4-AF9 inh – blocks AF4 peptide binding to human AF9. 0.47% of 350,000 active. AID 651704. P42568. inhibition, % at 10 µM. AlphaScreen, biotin-AF4 peptide binding to FLAG-AF9;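 active means every replicate reaching a set inhibition limit, whatever the replicate mean, cut at about 25% in these data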;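 further: 0% = plate neutral control median and 100% = total signal loss; the record names both 10 and 1 µM as test concentration; the first replicate is given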
Target sequence (P42568 whole entry, looked up): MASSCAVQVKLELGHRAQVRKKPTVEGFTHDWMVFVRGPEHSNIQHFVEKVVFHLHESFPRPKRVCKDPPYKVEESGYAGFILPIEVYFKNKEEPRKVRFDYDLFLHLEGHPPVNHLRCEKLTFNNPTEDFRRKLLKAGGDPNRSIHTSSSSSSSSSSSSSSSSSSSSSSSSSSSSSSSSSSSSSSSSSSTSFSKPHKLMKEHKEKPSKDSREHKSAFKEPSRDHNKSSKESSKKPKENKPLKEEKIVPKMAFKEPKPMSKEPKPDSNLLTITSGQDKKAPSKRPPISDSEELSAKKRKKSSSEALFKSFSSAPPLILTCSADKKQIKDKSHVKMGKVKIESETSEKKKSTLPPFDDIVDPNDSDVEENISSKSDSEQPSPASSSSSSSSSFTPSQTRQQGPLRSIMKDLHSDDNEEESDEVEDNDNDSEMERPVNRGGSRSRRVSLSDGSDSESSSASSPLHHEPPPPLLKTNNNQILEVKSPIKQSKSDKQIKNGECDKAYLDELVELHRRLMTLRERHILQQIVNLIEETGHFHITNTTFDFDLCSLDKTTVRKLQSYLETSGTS
* hit, by the source's call.

C[C@@H]1CN([C@H](C)CO)S(=O)(=O)c2ccc(C#CCN(C)C)cc2O[C@@H]1CN(C)C(=O)CC1CC1 was read as MLL AF4-AF9 inh -0.9.
For CC(C)N(c1ccccc1)c1ccc(NC(=O)[C@@H]2O[C@H](CO)[C@@H](O)[C@H]2O)cc1 the results were MLL AF4-AF9 inh -3.2.
Cc1ccccc1S(=O)(=O)N1CC(=O)N2[C@H](CO)[C@@H](c3ccc(C#CC4CC4)cc3)[C@H]2C1 was read as MLL AF4-AF9 inh 2.0.
O=C(NCC(F)(F)F)[C@@H]1[C@@H](CO)[C@@H]2Cn3c(cccc3=O)[C@H]1N2C(=O)C1CCCC1 was read as MLL AF4-AF9 inh -8.8.
Screening C[C@H]1CN([C@@H](C)CO)C(=O)c2cccc(NC(=O)Nc3ccc4c(c3)OCO4)c2O[C@@H]1CN(C)S(=O)(=O)c1ccccc1 returned MLL AF4-AF9 inh 6.1.
For CCCNC(=O)N1CC(=O)N2[C@@H](CO)[C@H](c3ccc(-c4cccc(C)c4)cc3)[C@@H]2C1 the results were MLL AF4-AF9 inh -15.1.
Screening C[C@H]1CN([C@@H](C)CO)C(=O)c2cc(NC(=O)c3ccncc3)ccc2O[C@@H]1CN(C)Cc1ccc(Cl)c(Cl)c1 returned MLL AF4-AF9 inh -1.0.
Screening CSc1ccc(/C=C/C(=O)OCC(=O)N2CCN(c3ccccc3)CC2)cc1 returned MLL AF4-AF9 inh -3.8.
`CCCNC(=O)[C@H]1[C@H](CO)[C@H]2Cn3c(cccc3=O)[C@@H]1N2C(=O)NCCC` gave MLL AF4-AF9 inh -0.4.
For Cc1ccc(S(=O)(=O)Nc2ccc3c(c2)C(=O)N([C@@H](C)CO)C[C@@H](C)[C@@H](CN(C)C(=O)C2CCCCC2)OCCCC[C@H](C)O3)cc1 the results were MLL AF4-AF9 inh 1.1.
Screening COc1ccccc1-c1ccc2c(c1)[C@@H]1[C@@H](CCN1S(=O)(=O)c1cccc(C)c1)[C@H](CO)N2 returned MLL AF4-AF9 inh -0.6.
Screening O=C(C[C@H]1CC[C@@H]2[C@H](COC[C@H](O)CN2C(=O)c2ccc(F)cc2)O1)NCc1cccc(F)c1 returned MLL AF4-AF9 inh -1.4.
O=C(C[C@H]1C[C@H]2c3cc(NC(=O)Cc4ccncc4)ccc3O[C@H]2[C@H](CO)O1)NCc1cccnc1 was read as MLL AF4-AF9 inh 0.2.
`CN1C(=O)c2cc(NC(=O)Cc3cccs3)ccc2OC[C@H]2O[C@H](CC(=O)NCc3ccc(-c4ccccc4)cc3)CC[C@@H]21` gave MLL AF4-AF9 inh -10.3.
`O=C(C[C@@H]1CC[C@H]2NC[C@H](O)COC[C@@H]2O1)NCc1ccc(Oc2ccccc2)cc1` gave MLL AF4-AF9 inh 3.9.
For O=C(c1ccccc1)N1CC2(C1)[C@@H](c1ccccc1)[C@@H](CO)N2Cc1cc(F)ccc1F the results were MLL AF4-AF9 inh -0.4.
O=C(C[C@@H]1C=C[C@@H](NC(=O)CN2CCOCC2)[C@H](CO)O1)NC1CCCCC1 was read as MLL AF4-AF9 inh -3.8.
CCOC(=O)[C@]12CCCC=C1N(Cc1ccco1)C(=O)[C@H](CC(=O)NCC1CCCCC1)C2 was read as MLL AF4-AF9 inh 6.4.
For C[C@H](CO)N1C[C@H](C)[C@H](CN(C)Cc2ccc(Oc3ccccc3)cc2)Oc2c(NC(=O)CCCCCC(=O)Nc3ccccc3N)cccc2C1=O the results were MLL AF4-AF9 inh -3.4.
C[C@H](CO)N1C[C@H](C)[C@H](CN(C)Cc2ccc(F)cc2)Oc2ncc(C#Cc3cccnc3)cc2C1=O was read as MLL AF4-AF9 inh -1.1.
`CC(=O)N(C)C[C@H]1Oc2ncc(C3=CCCC3)cc2C(=O)N([C@@H](C)CO)C[C@@H]1C` gave MLL AF4-AF9 inh -4.9.
C[C@H](CO)N1C[C@H](C)[C@H](CN(C)Cc2ccc(C(=O)O)cc2)Oc2c(NS(=O)(=O)c3ccc(Cl)cc3)cccc2C1=O was read as MLL AF4-AF9 inh 1.1.
`COc1cccc(C(C#N)NCCCNC(C#N)c2cccc(OC)c2OC)c1OC` (stereo not given) gave MLL AF4-AF9 inh 1.9.
`COc1ccc(CN(C)C[C@@H]2Oc3ccc(NS(=O)(=O)c4ccc(OC)cc4)cc3C(=O)N([C@H](C)CO)C[C@H]2C)cc1` gave MLL AF4-AF9 inh -0.6.

9 successive records from above, for reference:
For O=C(c1ccccc1)N1CC2(C1)[C@@H](c1ccccc1)[C@@H](CO)N2Cc1cc(F)ccc1F the results were MLL AF4-AF9 inh -0.4.
O=C(C[C@@H]1C=C[C@@H](NC(=O)CN2CCOCC2)[C@H](CO)O1)NC1CCCCC1 was read as MLL AF4-AF9 inh -3.8.
CCOC(=O)[C@]12CCCC=C1N(Cc1ccco1)C(=O)[C@H](CC(=O)NCC1CCCCC1)C2 was read as MLL AF4-AF9 inh 6.4.
For C[C@H](CO)N1C[C@H](C)[C@H](CN(C)Cc2ccc(Oc3ccccc3)cc2)Oc2c(NC(=O)CCCCCC(=O)Nc3ccccc3N)cccc2C1=O the results were MLL AF4-AF9 inh -3.4.
C[C@H](CO)N1C[C@H](C)[C@H](CN(C)Cc2ccc(F)cc2)Oc2ncc(C#Cc3cccnc3)cc2C1=O was read as MLL AF4-AF9 inh -1.1.
`CC(=O)N(C)C[C@H]1Oc2ncc(C3=CCCC3)cc2C(=O)N([C@@H](C)CO)C[C@@H]1C` gave MLL AF4-AF9 inh -4.9.
C[C@H](CO)N1C[C@H](C)[C@H](CN(C)Cc2ccc(C(=O)O)cc2)Oc2c(NS(=O)(=O)c3ccc(Cl)cc3)cccc2C1=O was read as MLL AF4-AF9 inh 1.1.
`COc1cccc(C(C#N)NCCCNC(C#N)c2cccc(OC)c2OC)c1OC` (stereo not given) gave MLL AF4-AF9 inh 1.9.
`COc1ccc(CN(C)C[C@@H]2Oc3ccc(NS(=O)(=O)c4ccc(OC)cc4)cc3C(=O)N([C@H](C)CO)C[C@H]2C)cc1` gave MLL AF4-AF9 inh -0.6.

Continuation.
Screening COc1ccc(Cl)cc1Cn1c(C)c(C(=O)NCc2cccc(C(F)(F)F)c2)sc1=O returned MLL AF4-AF9 inh -6.5.
`C=CCNc1ccc2c(c1)OC[C@H](Cc1ccccc1)NS2(=O)=O` gave MLL AF4-AF9 inh -0.9.
Screening COCCN(CCOC)Cc1cc(=O)oc2ccccc12 returned MLL AF4-AF9 inh -2.6.
`COc1ccc(NC(=O)Nc2ccc3c(c2)CC(=O)N([C@H](C)CO)C[C@@H](C)[C@H](CN(C)S(=O)(=O)c2ccc(F)cc2)O3)cc1` gave MLL AF4-AF9 inh -3.1.
`COC(=O)c1c(-c2ccc(N(C)C)cc2)oc2c1C(OC)CCC2` (stereo not given) gave MLL AF4-AF9 inh -2.5.
`CO[C@@H]1CN(C)C(=O)c2cc(NC(=O)C3CC3)ccc2OC[C@H](C)N(C(=O)CN(C)C)C[C@H]1C` gave MLL AF4-AF9 inh 0.0.
`CC(C)NC(=O)N(C)C[C@@H]1Oc2c(NC(=O)C3CC3)cccc2C(=O)N([C@@H](C)CO)C[C@H]1C` gave MLL AF4-AF9 inh -15.6.
For O=C(C[C@@H]1C[C@@H]2c3cc(NS(=O)(=O)c4ccccc4)ccc3O[C@@H]2[C@@H](CO)O1)N1CCOCC1 the results were MLL AF4-AF9 inh 1.9.
Cc1noc(C)c1S(=O)(=O)N(C)C[C@H]1Oc2ccc(NC(=O)C3CCCCC3)cc2CC(=O)N([C@H](C)CO)C[C@H]1C was read as MLL AF4-AF9 inh -1.6.
Screening Cc1ccccc1-c1ccc2c(c1)O[C@H](CN(C)Cc1ccncc1)[C@@H](C)CN([C@@H](C)CO)S2(=O)=O returned MLL AF4-AF9 inh 7.4.
Screening CC1(C(=O)Nc2cccc3cccnc23)CCN1Cc1ccccc1OC(F)F (stereo not given) returned MLL AF4-AF9 inh 2.1.
Screening CCC(=O)N1[C@@H]2c3cccc(=O)n3C[C@H]1[C@H](CO)[C@H]2C(=O)NC1CCC1 returned MLL AF4-AF9 inh 0.1.
For CCCCn1c(N)c(N(CC(C)C)C(=O)CSc2nnc(C)n2-c2ccccc2)c(=O)[nH]c1=O the results were MLL AF4-AF9 inh -1.5.
For O=C(c1cccc(F)c1)N1CCCCN2[C@H](CO)[C@@H](c3ccc(-c4cccnc4)cc3)[C@H]2C1 the results were MLL AF4-AF9 inh -1.2.
`COC(=O)C[C@H]1CC[C@H](NC(=O)Nc2ccccc2)[C@@H](CO)O1` gave MLL AF4-AF9 inh -2.3.
For CNC[C@@H]1Oc2c(NC(=O)c3cnccn3)cccc2C(=O)N([C@H](C)CO)C[C@@H]1C the results were MLL AF4-AF9 inh -3.5.
Screening CCCNC(=O)[C@H]1[C@H](CO)[C@H]2Cn3c(ccc(-c4cccc(F)c4)c3=O)[C@@H]1N2Cc1ccccc1F returned MLL AF4-AF9 inh 1.4.
COCCOC(=O)N1C(=O)[C@@]2(c3cc(C#CC4=CCCCC4)ccc31)[C@H](c1ccccc1OCCO)N1[C@H](c3ccccc3)[C@H](c3ccccc3)OC(=O)[C@H]1[C@@H]2C(=O)NC[C@H](O)c1ccccc1 was read as MLL AF4-AF9 inh -1.0.
`O=C(C1CCCC1)N1[C@@H](CO)[C@@H](c2ccccc2)C12CN(Cc1cccc(Cl)c1)C2` gave MLL AF4-AF9 inh 5.3.
`CO[C@@H]1CN(C)C(=O)c2cc(NC(=O)C3CC3)ccc2OC[C@H](C)N(C(=O)C2CCCCC2)C[C@H]1C` gave MLL AF4-AF9 inh 0.5.
`O=C1NC[C@H](CCCCN2C[C@H](Cc3ccc(O)cc3)N(CCc3ccc(O)cc3)C(=O)C2=O)N(CCc2ccc(O)cc2)C1=O` gave MLL AF4-AF9 inh -3.6.
`Cc1cccc(S(=O)(=O)N2CCCCN3[C@@H](CO)[C@@H](c4ccc(C#C[C@H](C)O)cc4)[C@@H]3C2)c1` gave MLL AF4-AF9 inh 10.5.
C[C@H](CO)N1C[C@H](C)[C@H](CN(C)Cc2ccc(C(=O)O)cc2)Oc2ccc(NC(=O)Cc3ccccc3)cc2C1=O was read as MLL AF4-AF9 inh -2.4.
COc1ccc(Cc2c(-c3cccc(Br)c3)nc3ccc(Br)cn23)c(C)c1 was read as MLL AF4-AF9 inh -0.7.
`Cc1ccc(S(=O)(=O)N2CCC[C@H]2C(=O)OCC(=O)N2c3ccccc3NC(=O)C2(C)C)cc1` gave MLL AF4-AF9 inh 3.3.
For COc1ccc(CC(=O)N(C)c2ccccc2)cc1S(=O)(=O)N1CCOCC1 the results were MLL AF4-AF9 inh -1.1.
Screening COc1ccc(C#Cc2ccc3c(c2)O[C@@H](CN(C)C)[C@@H](C)CN([C@H](C)CO)S3(=O)=O)cc1 returned MLL AF4-AF9 inh 10.6.
`C/C=C/c1ccc([C@@H]2[C@H]3CN(C(=O)Nc4ccc(F)cc4)CCCCN3[C@H]2CO)cc1` gave MLL AF4-AF9 inh -3.8.
For Cc1noc(C)c1NC(=O)N(C)C[C@@H]1OCCCC[C@H](C)Oc2ccc(NC(=O)c3ccccc3)cc2C(=O)N([C@H](C)CO)C[C@@H]1C the results were MLL AF4-AF9 inh -0.5.
Screening COc1ccc(CN(C)C[C@H]2Oc3ccc(NC(=O)NC(C)C)cc3CC(=O)N([C@H](C)CO)C[C@@H]2C)cc1 returned MLL AF4-AF9 inh -3.4.
`Cn1c(N)c(C#N)c(-c2ccccc2)c(C#N)c1=O` gave MLL AF4-AF9 inh 0.3.
C[C@H](CO)N1C[C@H](C)[C@@H](CN(C)C(=O)Nc2cccc3ccccc23)Oc2ccc(NC(=O)NC3CCCCC3)cc2C1=O was read as MLL AF4-AF9 inh -1.4.
`CC(C)C#Cc1cnc2c(c1)C(=O)N([C@@H](C)CO)C[C@@H](C)[C@@H](CN(C)C(=O)C1CCC1)O2` gave MLL AF4-AF9 inh -3.5.
`O=C(NC1CCCC1)[C@H]1[C@H](CO)[C@H]2Cn3c(ccc(-c4ccccc4)c3=O)[C@H]2N1CCc1ccccc1` gave MLL AF4-AF9 inh 5.3.
For C[C@H](CO)N1C[C@H](C)[C@H](CN(C)C)Oc2c(NS(=O)(=O)c3ccccc3)cccc2C1=O the results were MLL AF4-AF9 inh -2.6.
`CNC[C@@H]1Oc2ccc(NC(=O)Cc3ccccc3)cc2C(=O)N([C@@H](C)CO)C[C@H]1C` gave MLL AF4-AF9 inh -1.7.
For CCCC(=O)Nc1ccc2c(c1)C(=O)N(C)[C@@H]1CC[C@H](CC(=O)Nc3cn(C)nc3C)O[C@@H]1CO2 the results were MLL AF4-AF9 inh -2.0.
`N#CCCN(Cc1ccccc1)C(C(=O)NC1CCCCC1)C1CC1` (stereo not given) gave MLL AF4-AF9 inh 1.1.
For COc1ccc(NC(=O)Nc2cccc3c2O[C@@H](CN(C)Cc2ccc(C(=O)Nc4ccccc4N)cc2)[C@H](C)CN([C@H](C)CO)C3=O)cc1 the results were MLL AF4-AF9 inh -2.1.
`O=C(C[C@@H]1C=C[C@H](NC(=O)C2CCOCC2)[C@@H](CO)O1)NCc1ccccc1Cl` gave MLL AF4-AF9 inh -3.6.
For CO[C@@H]1CN(C)C(=O)c2cc(NC(=O)C3CC3)ccc2OC[C@H](C)N(C(=O)c2ccccc2)C[C@H]1C the results were MLL AF4-AF9 inh -0.1.
COc1ccc(S(=O)(=O)N(C)C[C@H]2Oc3ccc(NC(=O)Nc4c(C)noc4C)cc3CC(=O)N([C@H](C)CO)C[C@H]2C)cc1 was read as MLL AF4-AF9 inh -2.5.
`CC1(C(=O)NS(=O)(=O)C2CC2)CCCN(C(=O)c2ccccc2OC(F)(F)F)C1` (stereo not given) gave MLL AF4-AF9 inh 1.1.
CC(C)C(N)c1csc(NC(=O)Nc2cccc(Cl)c2)n1 (stereo not given) was read as MLL AF4-AF9 inh 14.4.
For C[C@H](CO)N1C[C@H](C)[C@H](CN(C)C(=O)C2CCC2)Oc2cc(-c3cncnc3)ccc2S1(=O)=O the results were MLL AF4-AF9 inh -3.4.
Screening C[C@@H]1CN([C@H](C)CO)C(=O)c2cc(NS(=O)(=O)c3ccc(Cl)cc3)ccc2O[C@@H](C)CCCCO[C@H]1CN(C)S(=O)(=O)c1cccs1 returned MLL AF4-AF9 inh -2.0.
For CO[C@@H]1CN(C)C(=O)c2cc(NS(C)(=O)=O)ccc2OC[C@@H](C)NC[C@@H]1C the results were MLL AF4-AF9 inh -6.0.

The list is partial, so the mix of outcomes need not match the whole.
